TRPML1 inh: qHTS for Inhibitors of the Human Mucolipin Transient Receptor Potential 1 (TRPML1) | AID 624415, 2012 | TRPML1-inducible cells, Ca2+ dye fluorescence, FDSS; stronger effect = lower value; inhibition of EC80 agonist-evoked calcium signal | hit rate 0.02% among 390,000 | Mucolipin-1 (Homo sapiens), Q9GZU1 | activity change, negative = inhibition, % (no concentration beside the values); in the data active means activity change below about -50%; inconclusive means about -30% to -50%; inactive means above about -30%;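 further: stimulus is agonist 54-4 at its EC80 concentration; on the % scale 0 is the no-effect control and ±100 the full control effect; compound concentration not given in the record; the text of the record puts the active cut at -80%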
Target sequence (Q9GZU1 whole entry, looked up): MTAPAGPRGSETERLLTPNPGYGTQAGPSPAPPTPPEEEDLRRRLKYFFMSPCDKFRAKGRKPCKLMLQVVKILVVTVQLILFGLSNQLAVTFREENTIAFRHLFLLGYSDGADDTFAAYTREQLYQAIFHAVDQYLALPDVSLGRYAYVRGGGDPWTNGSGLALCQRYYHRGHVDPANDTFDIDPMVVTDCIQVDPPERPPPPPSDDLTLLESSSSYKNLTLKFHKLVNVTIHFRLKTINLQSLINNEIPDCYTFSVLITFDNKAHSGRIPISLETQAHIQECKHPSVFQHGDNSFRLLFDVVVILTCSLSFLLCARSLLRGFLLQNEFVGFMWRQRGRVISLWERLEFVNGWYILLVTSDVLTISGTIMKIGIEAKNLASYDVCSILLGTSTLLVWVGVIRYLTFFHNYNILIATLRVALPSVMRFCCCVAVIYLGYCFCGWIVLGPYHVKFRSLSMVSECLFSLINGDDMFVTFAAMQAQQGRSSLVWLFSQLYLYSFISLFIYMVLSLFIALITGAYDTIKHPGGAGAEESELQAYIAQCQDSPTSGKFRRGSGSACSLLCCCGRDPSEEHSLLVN
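Calcium fluorescence in TRPML1-DL cells induced overnight with Tet: a 110 s read after compound pin addition, then a 110 s antagonist read after challenge with 54-4 at 4 uM final (EC80).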
Menin MLL FP FL: qHTS Assay for Inhibitors Targeting the Menin-MLL Interaction in MLL Related Leukemias: Competition With Fluorescein Labeled MLL-derived Peptide. Fluorescence polarization, fluorescein-MLL peptide displacement from menin. FP activity change, % at 61.4 µM. 290,000 tested, under 10 active. AID 1766, 2009; inconclusive = falling polarisation curve, or a change in total fluorescence; inactive = total fluorescence flat and polarisation flat or rising; no compound was filed as active; the % refers to the polarisation; negative = inhibition;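 further: % of control where 0% means no effect; inhibitors lower the polarisation; unlabelled MLL peptide was the positive control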
ClpP mod: qHTS Assay for Activators of ClpP; AID 651965, 2013; Potency, µM (highest dose often 57.5 µM), without a hit: top-dose activity change, negative = active; purified B. subtilis ClpP, FRET peptide cleavage, 20 min; hit rate 1.9% among 340,000; ATP-dependent Clp protease proteolytic subunit (Bacillus subtilis (strain 168)), P80244; active = well fitted falling curve with a large enough effect; inconclusive = small, poorly fitted or top-dose-only effect; inactive = no such curve, though single readings can be large or run the other way; further: potency means the concentration at half of the fitted maximal effect; the source files actives as falling curves though it sought activators and does not explain the sign; nearly all actives have a fitted effect of over 65% in size; many hits overshoot -100%
Target sequence (P80244 whole entry, looked up): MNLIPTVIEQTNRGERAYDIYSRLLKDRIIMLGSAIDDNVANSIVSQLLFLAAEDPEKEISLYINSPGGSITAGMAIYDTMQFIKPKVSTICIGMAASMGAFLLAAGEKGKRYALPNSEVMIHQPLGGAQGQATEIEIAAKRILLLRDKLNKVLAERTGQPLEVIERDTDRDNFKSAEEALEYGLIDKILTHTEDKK
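Buffer: 100 mM Tris/HCl pH8, 100 mM KCl, 0.05% low protease BSA, 2.5% glycerol, 0.01% Tween-20. ClpP 10 microg/mL final; 20 min RT; delta FRET normalized to ADEP and DMSO controls.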
TRPML1 agonist: qHTS for Agonists of the Human Mucolipin Transient Receptor Potential 1 (TRPML1) | hit rate 0.12% among 410,000 | TRPML1-expressing cells, Ca2+ dye fluorescence, FDSS; host cell line not named in the record; reference of the full effect not given here | AID 624414, 2012 | Mucolipin-1 (Homo sapiens), Q9GZU1 | activation, % (concentration not given with the values); in the data active = activation above about 50%; inconclusive = about 30% to 50%; inactive = below about 30%; further: 0% is about no effect; the text of the record puts the active cut at 80%
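Calcium fluorescence on an FDSS kinetic reader gave the read-out. Tet-induced TRPML1-DL cells were plated overnight, dye-loaded (Ca8 with quencher, 45-90 min, room temperature, dark), then read 110 s after compound addition, and again 110 s after 4uM final 54-4 (EC80).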
gsp antagonist: qHTS for Antagonists of gsp, the Etiologic Mutation Responsible for Fibrous Dysplasia/McCune-Albright Syndrome: qHTS | Potency, µM (highest dose often 76.9 µM), inactives show at the top dose activity change, negative = inhibition, usual class: inhibitors | hit rate 0.4% among 340,000 | gsp-mutant cells, cAMP HTRF, 30 min; control for the full effect not named in the record | AID 624288, 2012; active = falling curve of any shape with a large fitted effect; inconclusive = falling curve, mostly with a smaller effect; inactive = flat or rising curve; cell line not stated here;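 further: intracellular cAMP measured with PDE inhibitor Ro 20-1724 present during compound exposure; potency means the concentration at half of the fitted maximal effect; on the % scale 0 is the no-effect control and ±100 the full control effect; nearly all actives have a fitted effect of over 65% in size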
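G418-selected cells were plated in DMEM/10% FBS for 16-24 h at 37C, then treated with compounds plus the PDE inhibitor […] (300 uM solution added) for 30 min at 37C. Intracellular cAMP was measured by HTRF after 30 min lysis at room temperature.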
gsp agonist: qHTS for Agonist of gsp, the Etiologic Mutation Responsible for Fibrous Dysplasia/McCune-Albright Syndrome: qHTS; Potency, µM (highest dose often 76.9 µM), for inactives: at the highest dose activation (cAMP increase), actives largely listed as activators; hit rate 0.13% among 340,000; gsp mutant cells, cAMP HTRF, 30 min; control for the full effect not named in the record; active = well fitted activation curve with a large enough effect; inconclusive = small, poorly fitted or top-dose-only effect, or another doubt; inactive = no such curve, though single readings can be large or run the other way; cell line not stated here;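 further: phosphodiesterase inhibitor Ro 20-1724 added with compounds to block cAMP breakdown; potency means the concentration at half of the fitted maximal effect; nearly all actives have a fitted effect of over 60% in size; about a fifth of the inactives were tested at one dose only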
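Cells in DMEM/10% FBS with G418 were pretreated with compounds in DMSO plus […] (300 uM stock) for 30 min at 37C. cAMP was measured by HTRF (cAMP-d2 plus anti-cAMP antibody-K) after 30 min at room temperature.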
* hit, by the source's call; ? = inconclusive; · = no result given; & = joins results of further samples; [ ] = dose if it differs, or a comment.

| entry | Molecule | TRPML1 inh | Menin MLL FP FL | ClpP mod |
| --- | --- | --- | --- | --- |
| 1 | COc1ccccc1N1CCN(C(=O)C(C)N(c2ccc(C)c(C)c2)S(C)(=O)=O)CC1 (stereo not drawn) | 9 | 0.1 | -1.8% |
| 2 | O=C(N/C(=C/c1cccc([N+](=O)[O-])c1)C(=O)N1CCCCCC1)c1ccco1 | 8 | · | -1.2% |
| 3 | COc1ccc(/C(C)=N/N=C2/NC(=O)CC(C(=O)O)S2)cc1 (stereo not drawn) | -3 | 4.2 | -1.7% |
| 4 | O=C(CSCc1ccc(Cl)cc1)NCC1CCCO1 (stereo not drawn) | 15 | -0.5 | -0.6% |
| 5 | COc1ccccc1CNC(=O)N1CCN(c2ccccc2Cl)CC1 | -3 | 0.0 | · |
| 6 | CC(C)(Oc1ccc(C2CC2(Cl)Cl)cc1)C(=O)O (stereo not drawn) | -2 | -0.3&4.5 | 1.6% |
| 7 | CC(=NCCc1c(C)[nH]c2ccc(OCc3ccccc3)cc12)C1=C(O)CC(c2ccccc2)CC1=O (stereo not drawn) | 20 | 1.1 | · |
| 8 | COCCn1c(C)nnc1SCC(=O)Nc1ccccc1[N+](=O)[O-] | -13 | -2.9 | 0.5% |
| 9 | CCOC(=O)c1c(C)[nH]c(C)c1S(=O)(=O)N1CCC(C(=O)N2CCN(c3cccc(C)c3)C(C)C2)CC1 (stereo not drawn) | -26 | · | -0.6% |
| 10 | COc1cc2nc(=S)n(CCCN3CCOCC3)c(N)c2cc1OC | -13 | 0.6 | · |
| 11 | Nc1nc(NCC2CCCO2)nc(NCC2CCCO2)c1[N+](=O)[O-] (stereo not drawn) | 4 | 1.4 | -3.4% |
| 12 | CCOc1cc2c(cc1OCC)CN(C(=O)c1cccc(S(=O)(=O)N3CCCC3)c1)CC2 | 9 | · | -1.1% |
| 13 | CC1=NN(C(=O)Cc2ccc(C)cc2)C(O)(c2cccnc2)C1 (stereo not drawn) | 0 | 1.0 | -2.5% |
| 14 | CC(C)(C)OC(=O)N1CC(O)CC1C(=O)OCC(=O)c1ccc(Cl)cc1 (stereo not drawn) | -5 | 2.2 | 0.0% |
| 15 | CCCCCCCCCCOC(=O)c1csc2nnsc12 | -6 | -1.1 | -1.2% |

| entry | TRPML1 agonist | gsp antagonist | gsp agonist |
| --- | --- | --- | --- |
| 1 | 1.8 | -3% | -38%[inhibitor] |
| 2 | 0.4 | -22% | -19% |
| 3 | 0.2 | 9% | 1%[15.4 µM] |
| 4 | -0.8 | 8% | -5% |
| 5 | 1.2 | -8% | -9%[15.4 µM] |
| 6 | -0.2 | -5% | · |
| 7 | -0.2 | -8% | -17%[15.4 µM] |
| 8 | -0.6 | 8% | -9% |
| 9 | 0.8 | · | · |
| 10 | 0.0 | 4% | -24%[15.4 µM] |
| 11 | -0.4 | 4% | -10% |
| 12 | -1.6 | -12% | 12% |
| 13 | 0.9 | 10% | 3% |
| 14 | 0.2 | 7% | -43% |
| 15 | -1.0 | 0% | 4% |

Additional entries
| entry | Molecule | TRPML1 inh | Menin MLL FP FL | ClpP mod |
| --- | --- | --- | --- | --- |
| 16 | O=C(NCC1CCCO1)c1cc(S(=O)(=O)Nc2ccc(Br)cc2)ccc1Cl (stereo not drawn) | -2 | -0.3 | -0.7% |
| 17 | CC(=O)c1sc(NC(=O)CCS(=O)(=O)c2ccc(Cl)cc2)nc1C | 13 | · | 0.2% |
| 18 | Cc1ccn2c(Nc3ccc4c(c3)OCO4)c(-c3ccc(O)cc3)nc2c1 | -6&-7 | -0.3 | 3.7%&4.3% |
| 19 | CC(C)Cn1c(N)c(C(=O)COC(=O)c2ccc(O)cc2)c(=O)n(C)c1=O | 1 | 14 | 0.8% |
| 20 | CC(=O)Nc1nonc1NC(=O)CSc1ccccn1 | 32 | 2.0 | -1.0% |
| 21 | CCCNC(=O)C1CCC(Cn2c(=O)c3sccc3n(CC(=O)Nc3ccccc3C)c2=O)CC1 (stereo not drawn) | -2 | · | -2.2% |
| 22 | O=C(NCc1cccs1)Nc1cccc(Cl)c1 | 1 | · | -3.5% |
| 23 | O=C(O)CSc1nc2ccccc2n1-c1ccccc1 | 7 | -2.0 | · |
| 24 | Cc1cc(NCC(C)C)n2ncnc2n1 | 10 | -1.7 | -3.0% |
| 25 | O=C(O)c1csc(N/N=C/c2ccc(Br)cc2)n1 | 9 | 3.1 | · |
| 26 | O=C(OCC1CCCO1)c1ccc2c(c1)N(Cc1ccccc1)C(=O)c1ccccc1S2(=O)=O (stereo not drawn) | -20 | · | -4.7% |
| 27 | CC(=O)C1C(c2cccc(F)c2)NC(=O)NC1(O)C(F)(F)F (stereo not drawn) | 23 | 2.4 | 61% |
| 28 | CCc1ccc(-c2nn(CC(=O)NC3CCCC3)c3c2cnc2ccc(F)cc23)cc1 | 30 | · | -6.1% |
| 29 | COc1cc(OC)cc(C(=O)N2CCC(C(=O)Nc3ccc4c(c3)OCCO4)CC2)c1 | -13 | 7.1 | -2.5% |
| 30 | COc1ccc(CNCCC(c2ccc(F)cc2)c2ccc(OC)cc2)cc1 (stereo not drawn) | 54 | -0.1 | 28µM* |

| entry | TRPML1 agonist | gsp antagonist | gsp agonist |
| --- | --- | --- | --- |
| 16 | 1.0 | -15% | 22% |
| 17 | 2.9 | 5% | 15%[15.4 µM] |
| 18 | 0.7&0.0 | -17% | 29% |
| 19 | 3.6 | -20% | 0% |
| 20 | -0.5 | 10% | 0% |
| 21 | 0.3 | · | · |
| 22 | -0.4 | 10% | -29% |
| 23 | 0.9 | -2% | 11%[15.4 µM] |
| 24 | -0.4 | -5% | 23% |
| 25 | -0.8 | 5% | -31% |
| 26 | 2.4 | · | · |
| 27 | -0.6 | 17% | ? |
| 28 | 0.2 | · | · |
| 29 | -0.3 | -1% | -7% |
| 30 | 4.4 | 9% | -37% |

Additional structures follow.
| entry | Molecule | TRPML1 inh | Menin MLL FP FL | ClpP mod |
| --- | --- | --- | --- | --- |
| 31 | COC(=O)c1ccc(OC)c(NS(=O)(=O)c2ccc(-n3cnnn3)cc2)c1 | 9 | -9.4 | · |
| 32 | Cc1cc(C)c2ccc3c(C)c(C)n(C)c3c2n1 | -19 | -4.5 | ? |
| 33 | O=S(=O)(NCCc1csc2nc(-c3ccccc3)nn12)c1ccc(Oc2ccccc2)cc1 | 7 | · | -3.1% |
| 34 | O=C(CSc1ncnc2c1cnn2CCc1ccccc1)Nc1cccc(C(F)(F)F)c1 | -1 | 1.3 | -2.1% |
| 35 | COC(=O)c1cc(CNC(=O)C2CC(=O)N(c3ccc4c(c3)OCCO4)C2)ccc1OC (stereo not drawn) | 1 | · | -6.1% |
| 36 | CCCCN(CC)CCNC(=O)Cn1cc2c(n1)-c1c(oc(C(=O)N3CCCC3)c1C)CC2 | 11&-6 | -8.1 | -2.5%&-1.2% |
| 37 | Cc1ccc(S(=O)(=O)NCCC(=O)N2CCN(S(=O)(=O)c3ccccc3)CC2)cc1C | 24 | · | -15% |
| 38 | CCOc1ccc(NC(=O)C2CCCN(S(=O)(=O)c3ccc4[nH]c(=O)ccc4c3)C2)cc1 (stereo not drawn) | 20&4 | 0.3 | -5.2%&1.2% |
| 39 | CC(=O)/C(=N\Nc1ccc(C)cc1)Sc1nncn1C | -6 | 4.3 | · |

| entry | TRPML1 agonist | gsp antagonist | gsp agonist |
| --- | --- | --- | --- |
| 31 | 0.5 | -10% | 4%[15.4 µM] |
| 32 | -0.6 | 5% | 13% |
| 33 | 2.3 | · | · |
| 34 | 1.0 | -5% | -32%[inhibitor] |
| 35 | 4.3 | 10% | -40%[inhibitor] |
| 36 | 3.5&-0.4 | 0% | 24% |
| 37 | 0.5 | -1% | 7%[15.4 µM] |
| 38 | -0.2&-0.4 | 12% | ? |
| 39 | -0.4 | 0% | -9%[15.4 µM] |

A different layout for part of the listing above:
29: COc1cc(OC)cc(C(=O)N2CCC(C(=O)Nc3ccc4c(c3)OCCO4)CC2)c1
30: COc1ccc(CNCCC(c2ccc(F)cc2)c2ccc(OC)cc2)cc1 (stereo not drawn)
31: COC(=O)c1ccc(OC)c(NS(=O)(=O)c2ccc(-n3cnnn3)cc2)c1
32: Cc1cc(C)c2ccc3c(C)c(C)n(C)c3c2n1
33: O=S(=O)(NCCc1csc2nc(-c3ccccc3)nn12)c1ccc(Oc2ccccc2)cc1
34: O=C(CSc1ncnc2c1cnn2CCc1ccccc1)Nc1cccc(C(F)(F)F)c1
35: COC(=O)c1cc(CNC(=O)C2CC(=O)N(c3ccc4c(c3)OCCO4)C2)ccc1OC (stereo not drawn)
36: CCCCN(CC)CCNC(=O)Cn1cc2c(n1)-c1c(oc(C(=O)N3CCCC3)c1C)CC2

assay / entry | 29 | 30 | 31 | 32 | 33 | 34 | 35 | 36
TRPML1 inh | -13 | 54 | 9 | -19 | 7 | -1 | 1 | 11&-6
Menin MLL FP FL | 7.1 | -0.1 | -9.4 | -4.5 | · | 1.3 | · | -8.1
ClpP mod | -2.5% | 28µM* | · | ? | -3.1% | -2.1% | -6.1% | -2.5%&-1.2%
TRPML1 agonist | -0.3 | 4.4 | 0.5 | -0.6 | 2.3 | 1.0 | 4.3 | 3.5&-0.4
gsp antagonist | -1% | 9% | -10% | 5% | · | -5% | 10% | 0%
gsp agonist | -7% | -37% | 4%[15.4 µM] | 13% | · | -32%[inhibitor] | -40%[inhibitor] | 24%

37: Cc1ccc(S(=O)(=O)NCCC(=O)N2CCN(S(=O)(=O)c3ccccc3)CC2)cc1C
38: CCOc1ccc(NC(=O)C2CCCN(S(=O)(=O)c3ccc4[nH]c(=O)ccc4c3)C2)cc1 (stereo not drawn)
39: CC(=O)/C(=N\Nc1ccc(C)cc1)Sc1nncn1C

assay / entry | 37 | 38 | 39
TRPML1 inh | 24 | 20&4 | -6
Menin MLL FP FL | · | 0.3 | 4.3
ClpP mod | -15% | -5.2%&1.2% | ·
TRPML1 agonist | 0.5 | -0.2&-0.4 | -0.4
gsp antagonist | -1% | 12% | 0%
gsp agonist | 7%[15.4 µM] | ? | -9%[15.4 µM]
